Compound activity (PubChem BioAssay)
Vaccinia inh: blocks a specific stage of Vaccinia orthopoxvirus infection, primary screen, cell-based, single point; Vaccinia-infected cells, mCherry/Venus stage reporter fluorescence; active compounds read low; some inactives read as strong as hits; activity change (mCherry), % (test concentration not listed); actives 0.01% (n = 89,000);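 active means mCherry past -33% and 40 or more points under the early reporter, replicates agreeing; inconclusive means past -33% without that gap or agreement; tested in A549 cells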;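 further: scaled between vehicle wells and reference inhibitor wells; 23 nL library stock went into each well; one replicate is shown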
Vaccinia inh Venus: also measured in Vaccinia inh; calls as there; activity change (Venus), %; measured here: Venus reporter, other viral stage;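 negative = less Venus signal; first of two replicates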
* marks the source's active call; other numbers are inactive results; ? = inconclusive; nt = not tested or not shown; & = joins results of further samples.

1. CN1CCN(C(=O)C[C@@H]2C=C[C@H](NC(=O)c3ccc4c(c3)OCO4)[C@@H](CO)O2)CC1
2. C[C@H](CO)N1C[C@H](C)[C@H](CN(C)C(=O)Nc2ccccc2)Oc2ccc(NC(=O)Nc3ccc(C(F)(F)F)cc3)cc2CC1=O
3. O=C(C[C@@H]1C[C@H]2c3cc(NC(=O)c4ccc5c(c4)OCO5)ccc3O[C@H]2[C@H](CO)O1)NCc1cc(F)ccc1F
4. CNC[C@@H]1Oc2ccc(NC(=O)c3ccncc3)cc2C(=O)N([C@@H](C)CO)C[C@@H]1C
5. COc1ccc(S(=O)(=O)Nc2ccc3c(c2)CC(=O)N([C@@H](C)CO)C[C@@H](C)[C@H](CN(C)Cc2ccc(-c4ccccc4)cc2)O3)cc1
6. CC(C)NC(=O)N(C)C[C@@H]1Oc2c(NC(=O)C3CCOCC3)cccc2C(=O)N([C@@H](C)CO)C[C@H]1C

Screen / compound no. | 1 | 2 | 3 | 4 | 5 | 6
Vaccinia inh | -10 | -31 | -14 | 11 | ? | 8
Vaccinia inh Venus | -2 | -27 | 0 | 14 | nt | 4

7. CCC(=O)Nc1ccc2c(c1)OC[C@@H](C)N(C(=O)c1cnccn1)C[C@H](C)[C@@H](OC)CN(C)C2=O
8. COc1ccccc1-c1ccc([C@@H]2[C@@H](CO)N(CC3CC3)C23CN(S(C)(=O)=O)C3)cc1
9. C[C@@H]1CN([C@H](C)CO)C(=O)c2c(c3ccccc3n2C)-c2ccccc2CO[C@H]1CN(C)C(=O)[C@@H]1CCCN1C
10. COc1cccc(-c2ccc([C@H]3[C@@H](CO)N4CCCCN(CC5CC5)C[C@H]34)cc2)c1
11. CC(=O)N1CC(=O)N2[C@H](C1)[C@H](c1ccc(-c3ccncc3)cc1)[C@@H]2CO
12. C[C@H]1CN([C@@H](C)CO)C(=O)Cc2cc(NC(=O)NC3CCCCC3)ccc2O[C@H]1CN(C)S(=O)(=O)c1ccc(Cl)cc1

Screen / compound no. | 7 | 8 | 9 | 10 | 11 | 12
Vaccinia inh | 12 | -16 | 17 | -25 | 15 | ?
Vaccinia inh Venus | 8 | -3 | 1 | -22 | 9 | nt

13. O=C(C[C@@H]1C[C@@H]2c3cc(NC(=O)c4ccc5c(c4)OCO5)ccc3O[C@@H]2[C@H](CO)O1)NC1CCCC1
14. COc1ccc(NC(=O)Nc2ccc3c(c2)[C@H]2C[C@H](CC(=O)NC4CCCC4)O[C@H](CO)[C@H]2O3)cc1
15. Cc1cccc(S(=O)(=O)N2CC[C@H]3[C@@H](CO)N(C)c4ccc(-c5ccccc5F)cc4[C@H]32)c1
16. O=C(c1ccncc1)N1CC(=O)N2[C@H](CO)[C@H](c3ccc(-c4ccccc4)cc3)[C@@H]2C1
17. CC(C)CC#Cc1cnc2c(c1)C(=O)N([C@@H](C)CO)C[C@H](C)[C@@H](CN(C)C(=O)Cc1cccnc1)O2
18. CO[C@H]1CN(C)C(=O)c2cc(NC(=O)NC3CCCCC3)ccc2OC[C@@H](C)NC[C@@H]1C

Screen / compound no. | 13 | 14 | 15 | 16 | 17 | 18
Vaccinia inh | 4 | 0 | -18 | 6 | 0 | 3
Vaccinia inh Venus | 4 | -6 | -16 | 4 | 2 | 1

19. CN(C)CC(=O)N1[C@H](CO)[C@H](c2ccccc2)C12CN(C(=O)c1cccc(F)c1)C2
20. CCCN(C)C[C@@H]1Oc2cc(C#Cc3cccnc3)ccc2S(=O)(=O)N([C@@H](C)CO)C[C@H]1C
21. C[C@H]1CN([C@@H](C)CO)C(=O)c2cc(N(C)C)ccc2O[C@H]1CN(C)Cc1ccncc1
22. COc1cccc(C#Cc2ccc3c(c2)O[C@@H](CN(C)C(=O)CN2CCOCC2)[C@@H](C)CN([C@H](C)CO)S3(=O)=O)c1
23. N#C[C@H]1[C@@H](c2ccc(C#Cc3ccc(F)cc3)cc2)[C@H](CO)N1C(=O)C1CC1
24. C[C@@H]1CN([C@@H](C)CO)C(=O)c2cc(Br)cnc2O[C@H]1CN(C)S(=O)(=O)c1ccccc1

Screen / compound no. | 19 | 20 | 21 | 22 | 23 | 24
Vaccinia inh | 19 | 14 | 10 | -18 | ? | 13&8
Vaccinia inh Venus | 17 | -3 | -5 | -15 | nt | 12&6

25. COc1ccc(CNC(=O)C[C@@H]2C[C@H]3c4cc(NS(=O)(=O)c5ccc(F)cc5)ccc4O[C@H]3[C@@H](CO)O2)cc1
26. Cc1ccc(S(=O)(=O)Nc2cccc3c2O[C@H](CN(C)Cc2ccccc2)[C@H](C)CN([C@H](C)CO)C3=O)cc1
27. COc1ccc(NC(=O)N(C)C[C@@H]2OCCCC[C@@H](C)Oc3ccc(NC(=O)C4CCCCC4)cc3C(=O)N([C@@H](C)CO)C[C@@H]2C)cc1
28. C[C@@H](NC(=O)C[C@@H]1C[C@@H]2c3cc(NS(C)(=O)=O)ccc3O[C@@H]2[C@H](CO)O1)c1ccccc1
29. O=C(c1ccccn1)N1C[C@H]2[C@@H](c3ccccc31)[C@@H](CO)N2C(=O)C1CCOCC1
30. C[C@@H]1CCCCO[C@H](CN(C)Cc2ccc(C(F)(F)F)cc2)[C@@H](C)CN([C@@H](C)CO)C(=O)c2cc(NC(=O)NC3CCCCC3)ccc2O1

Screen / compound no. | 25 | 26 | 27 | 28 | 29 | 30
Vaccinia inh | 9 | -5 | -12 | -6 | 13 | ?
Vaccinia inh Venus | 16 | 0 | -8 | -6 | 13 | nt

31. C[C@H](CO)N1C[C@H](C)[C@H](CN(C)Cc2ccc(C(F)(F)F)cc2)Oc2ccc(N(C)C)cc2CC1=O
32. CN1C(=O)c2cc(NC(=O)c3cnccn3)ccc2OC[C@@H]2O[C@H](CC(=O)N[C@@H]3CCN(Cc4ccccc4)C3)CC[C@H]21
33. COc1ccc(-c2ccc3n(c2=O)C[C@@H]2[C@@H](CO)[C@H](C(=O)N(C)C)N(CC4CCCC4)[C@H]32)cc1
34. Cc1ccc(S(=O)(=O)N(C)C[C@H]2Oc3c(NC(=O)Nc4c(C)noc4C)cccc3C(=O)N([C@H](C)CO)C[C@@H]2C)cc1
35. O=C(C[C@@H]1C=C[C@@H](NC(=O)Nc2ccc(C(F)(F)F)cc2)[C@H](CO)O1)NCCN1CCCC1
36. Cc1noc(C)c1NC(=O)Nc1ccc2c(c1)C(=O)N([C@@H](C)CO)C[C@@H](C)[C@@H](CN(C)S(=O)(=O)c1cn(C)cn1)OCCCC[C@@H](C)O2

Screen / compound no. | 31 | 32 | 33 | 34 | 35 | 36
Vaccinia inh | -20 | 11 | 3 | 8 | -14 | 13
Vaccinia inh Venus | -5 | 1 | 12 | -3 | -4 | 5

Quoted at random: three compounds from above.
36. Cc1noc(C)c1NC(=O)Nc1ccc2c(c1)C(=O)N([C@@H](C)CO)C[C@@H](C)[C@@H](CN(C)S(=O)(=O)c1cn(C)cn1)OCCCC[C@@H](C)O2
35. O=C(C[C@@H]1C=C[C@@H](NC(=O)Nc2ccc(C(F)(F)F)cc2)[C@H](CO)O1)NCCN1CCCC1
14. COc1ccc(NC(=O)Nc2ccc3c(c2)[C@H]2C[C@H](CC(=O)NC4CCCC4)O[C@H](CO)[C@H]2O3)cc1

Screen / compound no. | 36 | 35 | 14
Vaccinia inh | 13 | -14 | 0
Vaccinia inh Venus | 5 | -4 | -6

The listing continues.
37. COCC(=O)Nc1ccc2c(c1)C(=O)N(C)C[C@@H](OC)[C@@H](C)CN(C(=O)c1ccccn1)[C@H](C)CO2
38. C[C@H](CO)N1C[C@H](C)[C@H](CN(C)Cc2ccc(C(F)(F)F)cc2)Oc2c(NC(=O)C3CCCCC3)cccc2C1=O
39. O=C(NCC[C@H]1CC[C@@H](NS(=O)(=O)Cc2ccccc2)[C@H](CO)O1)C1CC1
40. O=C(Nc1ccc(Cl)cc1)N1C[C@H]2[C@@H](c3ccccc31)[C@@H](CO)N2CC1CCCCC1
41. C[C@H](CO)N1C[C@H](C)[C@@H](CN(C)Cc2ccc(C(=O)O)cc2)Oc2ccc(NC(=O)Cn3cnnn3)cc2C1=O
42. C[C@H](CO)N1C[C@H](C)[C@H](CN(C)C(=O)c2ccncc2)OCCCC[C@H](C)Oc2ccc(NS(=O)(=O)c3ccc(F)cc3)cc2C1=O

Screen / compound no. | 37 | 38 | 39 | 40 | 41 | 42
Vaccinia inh | 5 | -3 | -2 | ? | 6 | 32
Vaccinia inh Venus | 1 | -9 | -4 | nt | 0 | 10

43. C[C@H](CO)N1C[C@H](C)[C@H](CN(C)Cc2cccc3c2OCCCO3)OCc2ccccc2-c2ccccc2C1=O
44. COc1ccc(NC(=O)N(C)C[C@H]2Oc3cc(C#CCC(C)C)ccc3S(=O)(=O)N([C@H](C)CO)C[C@H]2C)cc1
45. C[C@H]1CN([C@@H](C)CO)S(=O)(=O)c2ccc(C#Cc3ccncc3)cc2O[C@H]1CN(C)C(=O)C1CC1
46. COc1ccc(-c2ccc([C@H]3[C@@H](CO)N4CCCCN(S(=O)(=O)c5cccs5)C[C@@H]34)cc2)cc1
47. C[C@@H]1CN([C@@H](C)CO)C(=O)c2cc(-c3ccccc3)cnc2O[C@@H]1CN(C)C(=O)NC1CCCC1
48. CCCNC(=O)C[C@@H]1C[C@H]2c3cc(NC(=O)C4CCC4)ccc3O[C@H]2[C@H](CO)O1

Screen / compound no. | 43 | 44 | 45 | 46 | 47 | 48
Vaccinia inh | -15 | ? | 2 | -18 | -7 | 22
Vaccinia inh Venus | -8 | nt | 7 | -20 | -7 | 15

49. CCC(=O)N1CC(=O)N2[C@H](CO)[C@H](c3ccc(C#CC4CCCC4)cc3)[C@@H]2C1
50. CC(C)NC(=O)N(C)C[C@@H]1Oc2ccc(NC(=O)NC3CCCCC3)cc2CC(=O)N([C@H](C)CO)C[C@H]1C
51. C[C@@H]1CN([C@@H](C)CO)C(=O)Cc2cc(N(C)C)ccc2O[C@@H]1CN(C)S(=O)(=O)c1cn(C)cn1
52. O=C(c1cccc(F)c1)N1CC(=O)N2[C@H](CO)[C@H](c3ccc(/C=C/c4ccccc4)cc3)[C@@H]2C1
53. COc1cccc(C#Cc2cnc3c(c2)C(=O)N([C@H](C)CO)C[C@@H](C)[C@H](CN(C)C(=O)C2CCOCC2)O3)c1
54. C[C@@H]1CN([C@H](C)CO)S(=O)(=O)c2ccc(C#Cc3ccccc3F)cc2O[C@@H]1CN(C)CC1CC1

Screen / compound no. | 49 | 50 | 51 | 52 | 53 | 54
Vaccinia inh | -12 | 6 | 20 | -18 | -4 | -14
Vaccinia inh Venus | -17 | 0 | 13 | -13 | -1 | -11

55. Cc1noc(C)c1NC(=O)N(C)C[C@@H]1OCCCC[C@H](C)Oc2ccc(NS(=O)(=O)c3c(C)noc3C)cc2C(=O)N([C@H](C)CO)C[C@@H]1C
56. C[C@H](CO)N1C[C@H](C)[C@H](CN(C)C(=O)c2ccccc2)OCCCC[C@H](C)Oc2ccc(NC(=O)Nc3ccc(C(F)(F)F)cc3)cc2C1=O
57. CCCC#Cc1cnc2c(c1)C(=O)N([C@@H](C)CO)C[C@@H](C)[C@H](CN(C)C(=O)c1ccccc1)O2
58. CC(=O)N1[C@@H]2c3ccc(/C=C/c4ccccc4)c(=O)n3C[C@@H]2[C@@H](CO)[C@@H]1C(=O)Nc1nccs1
59. C[C@H](CO)N1C[C@H](C)[C@@H](CN(C)C(=O)Nc2ccccc2)Oc2c(NS(C)(=O)=O)cccc2C1=O
60. CCS(=O)(=O)NCC[C@H]1CC[C@H](NC(=O)C2CCOCC2)[C@@H](CO)O1

Screen / compound no. | 55 | 56 | 57 | 58 | 59 | 60
Vaccinia inh | 23 | -21 | -22 | 9 | 21&9 | 13
Vaccinia inh Venus | 13 | -8 | -16 | 16 | 13&12 | 16

61. CC(C)NC(=O)N1CCCCN2[C@H](C1)[C@@H](c1ccc(C#C[C@H](C)O)cc1)[C@@H]2CO
62. Cc1noc(C)c1NC(=O)N(C)C[C@H]1Oc2c(NC(=O)Nc3ccc(C(F)(F)F)cc3)cccc2C(=O)N([C@H](C)CO)C[C@@H]1C
63. COc1cccc(-c2ccc3c(c2)[C@@H]2[C@@H](CCN2C(=O)Cc2ccccc2)[C@@H](CO)N3)c1
64. N#C[C@H]1[C@H](c2ccccc2-c2ccccc2F)[C@@H](CO)N1C(=O)Cc1ccccc1
65. CCCc1cn(CC[C@@H]2CC[C@H](NC(=O)C3CCC3)[C@@H](CO)O2)nn1
66. CCC(=O)N1C[C@H](C)[C@H](OC)CN(C)C(=O)c2cc(NC(=O)C3CCCCC3)ccc2OC[C@@H]1C

Screen / compound no. | 61 | 62 | 63 | 64 | 65 | 66
Vaccinia inh | 58 | -5 | 0 | -5 | -8 | -7
Vaccinia inh Venus | 24 | 1 | 5 | -2 | -11 | -9

67. CO[C@H]1CN(C)C(=O)c2cc(NC(=O)Nc3ccccc3Cl)ccc2OC[C@H](C)NC[C@@H]1C
68. Cc1ccc(S(=O)(=O)Nc2ccc3c(c2)C(=O)N([C@H](C)CO)C[C@@H](C)[C@@H](CN(C)C(=O)c2ccccc2)OCCCC[C@H](C)O3)cc1
69. COc1ccc(NC(=O)N(C)C[C@H]2Oc3ccc(NC(=O)C4CCCCC4)cc3C(=O)N([C@@H](C)CO)C[C@H]2C)cc1
70. Cc1ccc(S(=O)(=O)N(C)C[C@@H]2OCCCC[C@H](C)Oc3ccc(NC(=O)CCC(F)(F)F)cc3C(=O)N([C@H](C)CO)C[C@H]2C)cc1
71. N#C[C@@H]1[C@H](c2ccc(C#Cc3ccc(F)cc3)cc2)[C@@H](CO)N1C(=O)C1CCCC1
72. COc1ccccc1C#Cc1ccc([C@@H]2[C@@H](CO)N(C(=O)C3CCCC3)[C@H]2C#N)cc1
73. O=C(C[C@@H]1C[C@H]2c3cc(NC(=O)NC4CCCC4)ccc3O[C@H]2[C@H](CO)O1)NCc1ccncc1

Screen / compound no. | 67 | 68 | 69 | 70 | 71 | 72 | 73
Vaccinia inh | -16 | -16 | 17 | -32 | ? | -20 | -8
Vaccinia inh Venus | -3 | -4 | 12 | -34 | nt | -12 | -3

Only part of the results is shown; rates above refer to the full screens.
